Source: PubChem BioAssay (National Center for Advancing Translational Sciences (NCATS))
RE007 growth inh: qHTS Assay for Inhibitors of the HIV-1 protein Vpr. S. pombe RE007 Vpr strain, BacTiter-Glo ATP luminescence, 24 h; control for the full effect not named in the record. Potency, µM (series often up to 92.2 µM), without a hit: at the highest dose activity change, negative = less growth. 360,000 compounds, 0.21% hits. AID 651644, 2012; active = well fitted falling curve with a large enough effect; inconclusive = small, poorly fitted or top-dose-only effect; inactive = no such curve, though single readings can be large or run the other way;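 note: % is set by controls: 0 for no effect and ±100 for the full control effect; nearly all actives have a fitted effect of over 50% in size; the assay follows cell death caused by Vpr and the record does not say whether a fall means rescue or toxicity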
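Fission yeast strain RE007, carrying one chromosomally integrated HIV-1 vpr copy, was seeded at OD 0.01 in PMG+AL medium with 23 nL pinned compound. After 24 h at 30 °C and 99% humidity, viability was read by BacTiter-Glo luminescence.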
2A StopGo: High Throughput Screening for Foot and Mouth Disease Virus Antivirals; human cells with a luciferase reporter of 2A StopGo recoding; control for the full effect not named in the record; Potency, µM (highest dose often 57.9 µM), for the others: top-dose signal change, negative = less light; 410,000 compounds, 1.2% hits; active = well fitted falling curve with a large enough effect; inconclusive = small, poorly fitted or top-dose-only effect; inactive = no such curve, though single readings can be large or run the other way; tested in HEK293T cells; note: % is set by controls: 0 for no effect and ±100 for the full control effect; nearly all actives have a fitted effect of over 45% in size; luciferase light after 4 h
NS1 function inh: qHTS Assay for Inhibitors of Influenza NS1 Protein Function; 270,000 compounds, 0.4% hits; AID 2326, 2010; Potency, µM (series often up to 46.1 µM), without a hit: at the highest dose activity, positive = more growth; S. cerevisiae slowed by influenza A NS1, growth recovery by OD600; note: actives are rising curves; nearly all actives have a fitted effect of over 50% in size
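Growth recovery, yeast-based: influenza A NS1 expressed in S. cerevisiae causes slow growth, and suppressors are detected by OD600. The parent strain without NS1 is used as positive control.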
SARS PLpro yeast: qHTS of Yeast-based Assay for SARS-CoV PLP | Potency, µM (series often up to 32.9 µM), without a hit: at the highest dose activity, positive = growth rescue | S. cerevisiae expressing SARS-CoV PLpro, growth rescue; control for the full effect not named in the record | 330,000 compounds, 0.19% hits; note: 0% is about no effect; nearly all actives have a fitted effect of over 55% in size; growth read by luminescence after 48 h
Cruzain inh Det: qHTS Assay for Promiscuous and Specific Inhibitors of Cruzain (with detergent); Cruzipain (Trypanosoma cruzi), P25779; purified cruzain, Z-FR-AMC fluorescence, 0.01% Triton; Potency, µM, without a hit: max response, negative = inhibition, actives largely listed as inhibitors; 200,000 compounds, 0.43% hits; AID 1478, 2009; active = well fitted curve in the direction sought with a large enough effect; inconclusive = small, poorly fitted or top-dose-only effect, or another doubt; inactive = no such curve, though single readings can be large; an effect the other way counts as inactive or inconclusive;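 note: plate controls were neutral wells for no effect and buffer without enzyme for full effect; nearly all actives have a fitted effect of over 40% in size; top concentration of the series not given in the record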
Target sequence (P25779 123-467 limits assumed): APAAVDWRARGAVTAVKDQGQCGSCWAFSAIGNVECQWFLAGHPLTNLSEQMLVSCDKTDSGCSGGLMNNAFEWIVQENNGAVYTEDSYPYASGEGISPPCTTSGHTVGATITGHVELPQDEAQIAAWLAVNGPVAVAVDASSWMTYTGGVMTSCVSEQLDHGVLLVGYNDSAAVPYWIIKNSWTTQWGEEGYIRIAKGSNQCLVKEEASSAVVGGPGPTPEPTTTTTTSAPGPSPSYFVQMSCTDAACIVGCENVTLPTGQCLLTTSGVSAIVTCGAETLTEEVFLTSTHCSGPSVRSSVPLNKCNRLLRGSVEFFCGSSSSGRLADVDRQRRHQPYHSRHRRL
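Compounds were screened in titration against cruzain (1.5 nM) with 0.01% Triton X-100 to counter colloidal aggregation. Activity was the AMC fluorescence increase over 60 s after adding 2 uM Z-FR-AMC at pH 5.5.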
Marburg entry inh: qHTS for inhibitors of binding or entry into cells for Marburg Virus | Marburg virus pseudotyped entry inhibition, cell reporter; control for the full effect not named in the record; about a third of the inactives were read at about 46 µM | Potency, µM (top dose mostly 37.8 µM), inactives show top-dose activity change, negative = inhibition, most hits filed as inhibitors | 300,000 compounds, 1.8% hits | AID 540276, 2011; active = well fitted inhibition curve with a large enough effect; inconclusive = small, poorly fitted or top-dose-only effect, or effect the other way; inactive = flat fitted curve, though single readings scatter; tested in HEK293 cells; about a fifth of its hits are not listed in these tables; note: % is set by controls: 0 for no effect and ±100 for the full control effect; luciferase read-out
Cruzain noTriton: qHTS Assay for Promiscuous and Specific Inhibitors of Cruzain (without detergent). 200,000 compounds, 2.3% hits. AID 1476, 2009. Potency, µM, inactives show max response, negative = inhibition, most hits filed as inhibitors. purified cruzain, Z-FR-AMC fluorescence, no detergent; active = well fitted curve in the direction sought with a large enough effect; inconclusive = small, poorly fitted or top-dose-only effect, or another doubt; inactive = no such curve, though single readings can be large; an effect the other way counts as inactive or inconclusive;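 note: plate controls were enzyme without inhibitor for no effect and buffer without enzyme for full effect; nearly all actives have a fitted effect of over 40% in size; top concentration of the series not given in the record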
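Detergent-free condition (0.00005% Triton X-100) in acetate buffer pH 5.5 with DTT. 1.5 nM enzyme and compound were pre-mixed 15 min, then 2 uM Z-FR-AMC substrate added; reaction progress from fluorescence change between first and third reads (60 s).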
Lassa entry inh: qHTS for Inhibitors of binding or entry into cells for Lassa Virus. Potency, µM (doses to about 37.9 µM), for the others: top-dose activity change, negative = inhibition, hits mostly inhibitors. Lassa virus pseudotype entry inhibition, cell reporter; control for the full effect not named in the record. AID 540256, 2011. 300,000 compounds, 1.2% hits; active means well fitted inhibition curve with a large enough effect; inconclusive means small, poorly fitted or top-dose-only effect, or effect the other way; inactive means flat fitted curve, though single readings scatter; tested in HEK293 cells; note: % is set by controls: 0 for no effect and ±100 for the full control effect; nearly all actives have a fitted effect of over 50% in size; luciferase read-out
Numbers without * were called inactive; ? = inconclusive; · = no result given; & = joins results of further samples; ! = not confirmed by another sample; [ ] = dose if it differs, or a comment. Unless noted, calls come from the whole dose curve; as a rule, active means well fitted rising curve with a large enough effect; inconclusive means small, poorly fitted or top-dose-only effect; inactive means no such curve, though single readings can be large or run the other way. Potency is the fitted concentration of half-maximal effect.

item	SMILES	SARS PLpro yeast	NS1 function inh	Cruzain noTriton	Lassa entry inh
1	O=C(N/N=C/c1ccc([N+](=O)[O-])o1)c1cn(-c2ccccc2)nc1-c1ccc(Cl)cc1	0%	3%	·	·
2	CCn1cc(CNC(=O)c2ccc3nc(Cc4ccccc4F)oc3c2)cn1	-1%	?	·	7%[46.1 µM]
3	CCC1(c2ccccc2)NC(=O)N(CC(=O)Nc2cc(S(=O)(=O)N3CCCCC3)ccc2OC(C)C)C1=O (stereo not given)	·	·	·	-14%
4	CCN1CCN(c2ccc(S(=O)(=O)N3CCCCC3)cc2NC(=O)c2cccc(C(F)(F)F)c2)CC1	-1%	·	·	-2%[46.1 µM]
5	CN(C)S(=O)(=O)N1CCN(C(=O)N2CCOCC2)CC1	1%	4%	9%	0%
6	Cn1c(Nc2cccc(Cl)c2)nc2ccccc21	-2%	-64%	·	?
7	COc1cc(C2CC(c3cccs3)=NN2C(=O)CCl)ccc1OC(F)F (stereo not given)	-5%	-15%	·	?
8	NNC(=O)c1ccc(CSc2n[nH]c(=O)[nH]c2=O)cc1	-2%	-2%	·	-3%
9	COc1ccc(/C(N)=N/OC(=O)c2ccc([N+](=O)[O-])c(C)c2)cc1OC	0%	1%	·	·
10	N=C1c2ccccc2CN1c1cccc([N+](=O)[O-])c1	-1%	0%	·	20%
11	O=C(O)c1cc(-c2ccco2)nc2ccc(Br)cc12	-3%&10%	20µM*!	-10%&-19%	7%&17%
12	c1ccc(Cc2noc(CN3CCN(CCOc4ccccc4)CC3)n2)cc1	1%	-4%	·	·
13	Cc1nc(N2C(=O)c3oc4ccccc4c(=O)c3C2c2cccc(OCCC(C)C)c2)sc1C (stereo not given)	·	·	-5%	30%[46.1 µM]
14	COc1cc2[nH]cc(C(=O)NCc3ccccc3)c(=O)c2cc1OC	-6%	15%	·	·
15	O=C(O)c1ccc(Cl)c(NCc2cccnc2)c1	3%	5%	·	14%[46.1 µM]

item	Marburg entry inh	Cruzain inh Det	RE007 growth inh	2A StopGo
1	·	·	1%	-21%
2	-5%[46.1 µM]	·	3%	-18%
3	?	·	-1%	-2%
4	?	·	11%	-27%
5	-6%	1.3%	-7%	·
6	?	·	-26%	9%
7	?	·	17%	16µM*
8	12%	·	17%	4%
9	·	·	-20%	10%
10	13%[46.1 µM]	·	-18%	-14%
11	-2%&1%	-12%&-17%	-30%&-14%	5%&17%
12	·	·	-14%	-18%
13	8%[46.1 µM]	-0.3%	·	-15%
14	·	·	-7%	-4%
15	1%[46.1 µM]	·	5%	-14%

Next section:
item	SMILES	SARS PLpro yeast	NS1 function inh	Cruzain noTriton	Lassa entry inh
16	COc1ccc(OC)c(C(=O)c2oc3ccccc3c2NC(C)=O)c1	-12%	-81%	7%	-1%
17	CC(C)NC(=O)c1ccc(-n2c(-c3ccccc3)cc3c2CCCCC3)cc1	·	·	0%	17%[46.1 µM]
18	CCCNC(=S)N(Cc1cc2cc(C)ccc2n2nnnc12)CC(C)(C)CN(C)C	3%	-1%	·	16%
19	Fc1ccc(CN2CCN(c3ncnc4scc(-c5ccccc5)c34)CC2)cc1	-2%	-8%	·	·
20	O=C(COC(=O)c1c(F)cccc1F)NCCNC(=O)COC(=O)c1c(F)cccc1F	0%	0%	·	16%
21	O=C(N/N=C/c1cc2c3c(c1O)CCCN3CCC2)c1ccccc1O	2.8µM*	25%	?	1.3µM*
22	CCc1cc(=O)oc2cc(C)c(CN3CCCC3)c(O)c12	5%	?	7%	6%
23	Cc1nc(NC(=O)c2ccc(OCC(C)C)cc2)sc1Cc1ccc2c(c1)OCO2	-1%	7%	·	·
24	CCCNC(=O)CN1C(=O)NC(CCc2ccccc2)C1=O (stereo not given)	1%	·	·	·
25	C=CCn1c(CCNC(=O)C(C)(C)C)nc2ccccc21	-4%	-2%	-2%	-4%
26	Cc1cc(C)c2oc(-c3cccc(NC(=O)COc4ccccc4Cl)c3C)nc2c1	·	·	7%	?
27	Nc1c(Cl)cc(-c2csc(NCCc3nc4cc(Cl)c(Cl)cc4n3CCCO)n2)cc1Cl	8%	13%	·	·
28	CCN(CC)c1ccc(/C=N/Nc2nc(C)cc(=O)[nH]2)c(O)c1	4.5µM*	14%	10%	0.82µM*
29	CC(C)C(=O)Nc1ccc(C(=O)c2ccccc2)cc1	-11%	?	-1%	9%
30	Cc1c(NC(=O)c2cc3nc(-c4ccc(Br)cc4)cc(C(F)(F)F)n3n2)c(=O)n(-c2ccccc2)n1C	2%	13%	?	?

item	Marburg entry inh	Cruzain inh Det	RE007 growth inh	2A StopGo
16	?	-4.4%	-7%[3.69 µM]	-10%
17	·	-0.7%	·	12%
18	-10%	·	-3%	18%
19	·	·	-13%	?
20	8%[46.1 µM]	·	-19%	1%
21	1.5µM*	-9.2%	?	-9%
22	-1%	-11%	11%	-10%
23	·	·	4%	-9%
24	16%[46.1 µM]	·	-1%	-3%
25	10%	3.7%	11%	-25%
26	11%[46.1 µM]	1.5%	·	?
27	·	·	-3%	-15%
28	0.52µM*	-9.9%	-8%	15%
29	11%	-3.7%	19%	26%
30	-20%[46.1 µM]	-5.1%	-15%	-25%

The listing continues.
item	SMILES	SARS PLpro yeast	NS1 function inh	Cruzain noTriton	Lassa entry inh
31	COc1ccc(C(=O)Nc2cc(C(F)(F)F)ccc2N2CCN(c3ccccc3)CC2)cc1OC	·	·	-2%	2%[46.1 µM]
32	Cc1cc(NS(=O)(=O)c2ccc(NC(=O)CCCOc3ccccc3C)cc2)nc(C)n1	-1%	12%	·	3%
33	O=C(Nc1nc2cc(Cl)ccc2s1)C1CCCN(S(=O)(=O)c2cccc3cccnc23)C1 (stereo not given)	4%	7%	25µM*	·
34	Cc1onc(-c2ccccc2)c1C(=O)NCCSCc1ccco1	0%	·	·	3%
35	CN(C)CCN1CC(C(=O)O)CC1=O (stereo not given)	11%	-5%	-6%	6%
36	CCN1CCN(C(=O)C2=CC(c3ccc(OC)cc3)=NS(=O)(=O)N2C)CC1	0%	-5%	·	·
37	Cc1ccc(Cl)cc1N1CCN(S(=O)(=O)c2cc3c(cc2C)NC(=O)CO3)CC1	-6%	5%	·	·
38	Cc1cc(C(=O)CN2CCCC2)c(C)n1-c1ccc(F)cc1	1%	2%	·	0%[46.1 µM]
39	Cc1ccc(NCc2ccc(O)c3ncccc23)cc1	-5%	-52%	·	?
40	Nc1cccc2c1C(=O)N(C(=O)c1ccc(Cl)c(S(=O)(=O)N3CCCCCC3)c1)C2=O	4%	?	?	-6%
41	CCOc1ncccc1C(=O)OCC(=O)N1CCC(C)CC1	0%	·	·	16%
42	O=C(c1ccc(Cl)c(S(=O)(=O)N2CCOCC2)c1)N1CCOCC1	-2%	-10%	·	6%
43	CN(C)/C=C/C(=O)c1ccc(S(=O)c2ccccc2)cc1 (stereo not given)	4%	·	·	20%[46.1 µM]
44	COc1ccc(OC)c(NC(=O)C(C)Oc2ccc(Br)cc2)c1 (stereo not given)	-4%	-33%	·	5%
45	C/C(=N\NC(=O)c1cc(O)cc(O)c1)c1ccc(NC(=O)Cc2ccccc2)cc1	?	-11%	·	1%

item	Marburg entry inh	Cruzain inh Det	RE007 growth inh	2A StopGo
31	10%[46.1 µM]	0.3%	·	-15%
32	?	·	0%	65%[activator]
33	-1%	-8.2%	-8%	0%
34	?	·	5%	0%
35	0%	-0.3%	9%	3%
36	·	·	-6%	-21%
37	·	·	7%	-24%
38	-1%[46.1 µM]	·	-9%	-13%
39	?	·	-14%	-5%
40	9%	1.0%	-8%	13%
41	?	·	9%	28%
42	?	·	-6%	-3%
43	-19%[46.1 µM]	·	4%	2%
44	1%[46.1 µM]	·	11%	-11%
45	3%	·	12%	48%[activator]

Other compounds follow:
item	SMILES	SARS PLpro yeast	NS1 function inh	Cruzain noTriton	Lassa entry inh
46	COCC(C)n1c(C)cc(C(=O)COC(=O)c2cc(=O)[nH]c3ccccc23)c1C (stereo not given)	0%	·	·	?
47	COc1ccc2c(c1OC)CN1CCc3cc4c(cc3[C@@H]1[C@@H]2O)OCO4	10%	13%	-6%	-5%
48	CN(C)c1cccc2cccc(N(C)C)c12	1%	5%	·	23%[46.1 µM]
49	COc1ccc(NC(=O)Nc2nc3c(s2)CCCC3)cc1	-46%	-17%	-7%	?
50	CC(=O)c1ccc(N2CCCCCC2)c(F)c1	-1%	-23%	-8%	-9%
51	CCn1cc(C(=O)O)c(=O)c2cc(F)c(N3CCNCC3)cc21	-2%	-4%	-3%&0%&-6%	-2%
52	O=c1cc[nH]c2c(Cl)cccc12	0%	-3%	·	·

item	Marburg entry inh	Cruzain inh Det	RE007 growth inh	2A StopGo
46	?	·	37%	?
47	-3%	2.9%	1%	2%
48	7%[46.1 µM]	·	-9%	-11%
49	0%	-12%	-17%	24%
50	?	-3.7%	0%	15%
51	-7%&-7%&-7%&-7%&-7%	-8.4%&4.3%&-4.5%	·	0%
52	·	·	-3%	0%

Whole records from above.
COCC(C)n1c(C)cc(C(=O)COC(=O)c2cc(=O)[nH]c3ccccc23)c1C (stereo not given) is entered as SARS PLpro yeast: 0%; NS1 function inh: ·; Cruzain noTriton: ·; Lassa entry inh: ?; Marburg entry inh: ?; Cruzain inh Det: ·; RE007 growth inh: 37%; 2A StopGo: ?
COc1ccc(NC(=O)Nc2nc3c(s2)CCCC3)cc1 is entered as SARS PLpro yeast: -46%; NS1 function inh: -17%; Cruzain noTriton: -7%; Lassa entry inh: ?; Marburg entry inh: 0%; Cruzain inh Det: -12%; RE007 growth inh: -17%; 2A StopGo: 24%
